AID504770: E. coli YBA685 growth inhibition, screen for V. cholerae RctB inhibitors | E. coli YBA685 rctB-dependent plasmid, OD600 growth, 3 h; stronger effect = lower value | z-score (concentration not given with the values) | actives 0.27% (n = 130,000);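 active = z-score under -2 on both plates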;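 note: wells of about 30 µL received 100 nL stock; score is relative to mean and SD of the test wells; the first replicate is given; strong numbers were not always called active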
Ba CapD inh: CapD enzyme inhibition; purified CapD enzyme, fluorescence intensity read-out; stronger effect = lower value; some hits fall short of the stated cut; z-score (no concentration beside the values); actives 0.23% (n = 140,000); AID 492967;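 active = z-score under -4 in either of two replicates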;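 note: stock transfer was 100 nL into about 40 µL; score is relative to mean and spread of the plate; one replicate is shown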
Starred values were filed as active, the others as inactive.

`CCn1c(=O)c(=O)n(CC)c2cc(N3CCCCC3)c(NC(=O)c3ccccc3)cc21` gave AID504770 -0.75 and Ba CapD inh 1.08.
Screening O=c1c2ccccc2nc(SCc2ccc(Cl)cc2)n1CC1COc2ccccc2O1 (centres undefined) returned AID504770 -0.65 and Ba CapD inh -0.01.
`CN(C)c1ccc(C(=O)NC2CCSC2=O)cc1` (centres undefined) gave AID504770 -0.45.
`N#CC1=C(N)Oc2c(c(=O)oc3ccccc23)C1` gave AID504770 -0.7.
For CCOC(=O)c1cnc(SC)nc1Sc1ccc(Cl)cc1Cl the results were Ba CapD inh 0.25.
For CC(C)(C)Sc1ccccc1/C=N/NC(=O)c1ccccc1CCc1ccccc1 the results were Ba CapD inh 0.19.
Screening O=C(NCCCn1ccnc1)c1nn2c(C(F)(F)F)cc(-c3ccco3)nc2c1Br returned Ba CapD inh -1.57.
For O=C(NCc1cccnc1)NC1CCCCC1 the results were AID504770 -0.25 and Ba CapD inh 0.78.
O=C(C[n+]1cc(-c2ccccc2)n2c1CCC2)c1ccccc1 was read as AID504770 -0.45 and Ba CapD inh -0.45.
`COC(=O)C1=CN(C2CC2)C=C(C(=O)OC)C1c1ccccc1` gave AID504770 1.7 and Ba CapD inh -0.535.
`COc1ccccc1C/C(N)=N/OC(=O)c1ccccc1` gave AID504770 -0.4.
`CC(C)Oc1ccccc1C1Nc2ccc3ccccc3c2C2=C1C(=O)CC(C)(C)C2` (centres undefined) gave Ba CapD inh 0.08.
`CCCN1CCC(N(C2CC2)S(=O)(=O)c2ccc(NS(=O)(=O)c3ccc(OC)cc3)cc2)CC1` gave Ba CapD inh -0.73.
`CN(CCC#N)c1ccc(C2Nc3ccccc3O2)cc1` (centres undefined) gave Ba CapD inh 49.8.
`COC(=O)c1sc(NC(=O)CSc2ncnc3sc4c(c23)CCC4)c(C(=O)OC)c1C` gave Ba CapD inh -0.01.
COc1ccc(/C=C/C2=CCN(Cc3ccc(OC)cc3)CC2)cc1 was read as AID504770 -0.3 and Ba CapD inh 0.575.
For Cc1cc(C(=O)NCc2ccc(N3CCOCC3)cc2)nn1C the results were AID504770 0.35 and Ba CapD inh 0.435.
Screening N#Cc1ccccc1NC(=O)COC(=O)C1CCCCC1 returned AID504770 0.9.
Screening Cn1c(=O)c2conc2n(C)c1=O returned AID504770 -1.75 and Ba CapD inh 0.93.
`COc1ccccc1NC(=O)CSc1cc(C(F)(F)F)cc(C(F)(F)F)c1` gave AID504770 -0.4 and Ba CapD inh -0.38.
`CC(C)N(C(=O)CS(=O)(=O)c1ccc(Cl)c(Cl)c1)C(C)C` gave Ba CapD inh 0.245.
`CCN(C(=O)Nc1cc(NC(=O)N(CC)C2CCCCC2)c(C)nc1C)C1CCCCC1` gave AID504770 0.15.
Screening O=C1CC(n2nc(COc3ccccc3)n(-c3ccccc3)c2=S)C2COC1O2 (centres undefined) returned Ba CapD inh 0.965.
For Cn1ncc(Br)c1-c1nc2ccccc2[nH]1 the results were AID504770 -0.8 and Ba CapD inh 0.93.
`O=C(NC1C2CC3CC(C2)CC1C3)C1CCCCC1` (centres undefined) gave AID504770 1.65 and Ba CapD inh -0.935.
Screening Cc1cc(Cc2ccccc2)c(C)cn1 returned AID504770 0.75 and Ba CapD inh 2.01.
`CCN(CC)S(=O)(=O)c1ccc(NC(=O)CSc2nc3ccccc3o2)cc1` gave AID504770 -1.5.
`CC1CCC2C(=O)N(c3ccc(Cl)cc3)C(=O)C2C1` (centres undefined) gave Ba CapD inh -0.315.
Screening O=C(OCc1nc2ccccc2s1)c1ccccc1 returned AID504770 2.05 and Ba CapD inh 1.22.
`COC(=O)C(C)Sc1nc2c([nH]c3ccccc32)c(=O)n1-c1cccc(Cl)c1` (centres undefined) gave AID504770 -0.55 and Ba CapD inh 0.645.
For COc1ccc(Cn2c(=O)sc3ccccc32)cc1 the results were AID504770 -0.6.
CCCCCN1/C(=C\C=C\c2n(CC)c3cc(Cl)c(Cl)cc3[n+]2CCCCC)N(CC)c2cc(Cl)c(Cl)cc21 was read as Ba CapD inh -0.695.
`O=C(N/N=C\c1cc(Cl)ccc1O)c1ccc(S(=O)(=O)N2CCCCC2)cc1` gave AID504770 -0.65 and Ba CapD inh -0.33.
`O=C1C(=O)N(c2ccc(F)cc2)C(c2ccc3c(c2)OCO3)/C1=C(\O)c1ccccc1` (centres undefined) gave Ba CapD inh -0.17.
`COc1ccc(C2=NN(C(=O)c3cc(OC)c(OC)c(OC)c3)C(c3ccccc3F)C2)cc1OC` (centres undefined) gave Ba CapD inh 10.5.
`O=C1CC(C(=O)Nc2ccc(Cl)c(Cl)c2)NC(=NCc2ccco2)N1` (centres undefined) gave AID504770 -0.65 and Ba CapD inh -0.02.
For COc1ccccc1C(=O)NC1CCS(=O)(=O)C1 (centres undefined) the results were AID504770 -0.25 and Ba CapD inh 0.5.
`O=c1c2cccnc2n(Cc2ccc(F)cc2)c(=O)n1Cc1ccc(F)cc1` gave AID504770 2.1 and Ba CapD inh 2.18.
`CCOC(=O)C1=C(CSc2nnc(C3CCCCC3)n2N)NC(=O)NC1c1ccccc1` (centres undefined) gave AID504770 0.3.
Screening CCN(CC)S(=O)(=O)c1ccc(/C=C/C(=O)OCC(=O)N2CC(C)OC(C)C2)cc1 (centres undefined) returned AID504770 -0.6.
`CSc1nn2ccc(-c3cccc(C(F)(F)F)c3)nc2c1C#N` gave AID504770 -1.35 and Ba CapD inh 0.965.
CCN1/C(=C(/O)c2ccccc2)C(=O)c2ccccc2S1(=O)=O was read as AID504770 -0.25 and Ba CapD inh 0.035.
`Cc1ccc(NC(=O)CCn2c(=O)sc3ccccc32)cc1F` gave AID504770 0.5 and Ba CapD inh 0.125.
For CC(C)(C)NC(=O)c1ccc(Sc2ccc(Cl)cc2)c([N+](=O)[O-])c1 the results were Ba CapD inh 0.165.
For CN(C)c1ccc(/C=N/OCC(=O)N(C)c2ccccc2)cc1 the results were AID504770 0.15.
Cc1ccccc1S(=O)(=O)Cc1ccc(C(=O)NC(C)C)o1 was read as AID504770 2.05 and Ba CapD inh -0.31.
For CCOc1ncccc1C(=O)NCCc1c[nH]c2ccccc12 the results were AID504770 -1.1.
Cc1cc(OC(=O)N(C)C)nc(SCc2c(Cl)cccc2Cl)n1 was read as AID504770 -0.15 and Ba CapD inh -0.03.
`OC(CN1CC=C(c2ccccc2)CC1)C(F)(F)F` (centres undefined) gave AID504770 1.3 and Ba CapD inh -0.215.
CC(C)(C)c1ccc(S(=O)(=O)Nc2ccc3[nH]c(=O)[nH]c3c2)cc1 was read as AID504770 1.95 and Ba CapD inh -0.325.
`CCOC(=O)c1ccc(NC(=O)CCn2c(=O)sc3ccccc32)cc1` gave AID504770 -0.15 and Ba CapD inh 0.48.
For O=S(=O)(Cc1ccccc1Cl)Nc1nc2cc(Cl)ccc2o1 the results were AID504770 -0.05 and Ba CapD inh 0.5.
CC1(C)CC2CC(C)(CN2C(=O)CSc2nnc(-c3cccs3)n2N)C1 (centres undefined) was read as AID504770 -0.3.
Screening CC1(C)CC(=O)c2cc(NC(=O)c3ccccc3)c(=O)oc2C1 returned AID504770 -1.4 and Ba CapD inh -0.86.
`CC(=O)Nc1cc(C(C)C)c(O)c(C(C)C)c1` gave AID504770 0.05.
`CCOC(=O)c1nnc(Cc2ccc(Cl)cc2)o1` gave AID504770 2.1 and Ba CapD inh -0.17.
For COc1ccc(SCc2c(CSc3ccccc3)nn(C)c2Cl)cc1 the results were Ba CapD inh -0.03.
`O=C(NC1Cc2ccccc2C1)c1ccc(Cl)cc1` gave Ba CapD inh 0.19.
`O=C(O)c1cccc2[nH]c3c(c12)CCCC3` gave AID504770 -0.65 and Ba CapD inh 95.9.
Screening S=c1[nH]nc(NCc2cccs2)s1 returned AID504770 0.75 and Ba CapD inh -0.08.
COc1ccc(/C=N/NC(=O)COc2ccc(Cl)cc2C)c(OC)c1C was read as Ba CapD inh -0.29.
Screening O=C(NCCc1ccc(O)cc1)c1ccc2ccccc2c1 returned AID504770 -0.35 and Ba CapD inh 46.6.
`CN1CCN(c2ccccc2C=C(C(=O)O)C(=O)O)CC1` gave AID504770 -0.5 and Ba CapD inh -0.205.
O=C(CSc1nccn1-c1ccccc1)Nc1nccs1 was read as AID504770 -0.45 and Ba CapD inh -0.445.
`CN(C(=O)CSc1ncccc1C(=O)Oc1ccccc1Cl)c1ccccc1` gave AID504770 -0.15 and Ba CapD inh 0.25.
`COC(=O)Cn1cc(C#N)c2ccccc21` gave AID504770 -1 and Ba CapD inh 2.3.
CC(=O)N1N=C(c2ccc(C)cc2)OC1c1cccnc1 (centres undefined) was read as AID504770 1.4 and Ba CapD inh 0.14.
COc1ccc(CNC(=O)Cn2c(=S)[nH]c3ccccc3c2=O)cc1 was read as AID504770 -0.45 and Ba CapD inh -1.33.
Screening COc1ccc(C(=O)Nn2c(SCC(=O)N3CCN(c4ccccc4)CC3)nc3ccccc3c2=O)cc1 returned Ba CapD inh 2.
Screening Cn1c(=O)c2c(SCCN3CCOCC3)nc(-c3ccccc3Cl)nc2n(C)c1=O returned AID504770 -0.8.
Screening CCn1c(-c2ccc3c(c2)OCCO3)cnc1SCC(=O)NC(=O)NCc1ccco1 returned AID504770 -0.45.
COCC(=O)NC1(c2nnnn2CCOC(=O)Nc2ccc(Cl)cc2)CCCCC1 was read as AID504770 -0.45 and Ba CapD inh -0.1.
Screening CCc1ccc(NC(=O)Cn2ncc3c(=O)oc4ccccc4c32)cc1 returned AID504770 0.3 and Ba CapD inh -2.12.
For CN(C(=O)c1cccc(N2C(=O)C3C4C=CC(C4)C3C2=O)c1)C1CCCCC1 (centres undefined) the results were AID504770 -0.25 and Ba CapD inh 2.19.
Screening CCCn1nnc(NC(=S)NC(=O)c2ccc(-c3cc(Cl)ccc3Cl)o2)n1 returned AID504770 0.7.
For CN1/C(=C\C(=O)c2ccccc2)c2ccccc2CC1(C)C the results were AID504770 0.5.
`NC(=O)c1cnn2c(-c3ccc(Cl)cc3Cl)ccnc12` gave AID504770 1.15 and Ba CapD inh 0.33.
`Nc1ncnc(Nc2ccc(F)cc2Br)n1` gave AID504770 -0.1 and Ba CapD inh 0.44.
`CC(c1ccccc1)C1C(C#N)=C(N)Oc2c1c(=O)oc1ccccc21` (centres undefined) gave AID504770 -0.6 and Ba CapD inh -0.055.
CSc1sc(C(=O)NN)c2c1C=CCC2 was read as AID504770 -0.5 and Ba CapD inh 1.44.

Taken from the results shown (15 entries):
Screening O=C(NCCc1ccc(O)cc1)c1ccc2ccccc2c1 returned AID504770 -0.35 and Ba CapD inh 46.6.
`CN1CCN(c2ccccc2C=C(C(=O)O)C(=O)O)CC1` gave AID504770 -0.5 and Ba CapD inh -0.205.
O=C(CSc1nccn1-c1ccccc1)Nc1nccs1 was read as AID504770 -0.45 and Ba CapD inh -0.445.
`CN(C(=O)CSc1ncccc1C(=O)Oc1ccccc1Cl)c1ccccc1` gave AID504770 -0.15 and Ba CapD inh 0.25.
`COC(=O)Cn1cc(C#N)c2ccccc21` gave AID504770 -1 and Ba CapD inh 2.3.
CC(=O)N1N=C(c2ccc(C)cc2)OC1c1cccnc1 (centres undefined) was read as AID504770 1.4 and Ba CapD inh 0.14.
COc1ccc(CNC(=O)Cn2c(=S)[nH]c3ccccc3c2=O)cc1 was read as AID504770 -0.45 and Ba CapD inh -1.33.
Screening COc1ccc(C(=O)Nn2c(SCC(=O)N3CCN(c4ccccc4)CC3)nc3ccccc3c2=O)cc1 returned Ba CapD inh 2.
Screening Cn1c(=O)c2c(SCCN3CCOCC3)nc(-c3ccccc3Cl)nc2n(C)c1=O returned AID504770 -0.8.
Screening CCn1c(-c2ccc3c(c2)OCCO3)cnc1SCC(=O)NC(=O)NCc1ccco1 returned AID504770 -0.45.
COCC(=O)NC1(c2nnnn2CCOC(=O)Nc2ccc(Cl)cc2)CCCCC1 was read as AID504770 -0.45 and Ba CapD inh -0.1.
Screening CCc1ccc(NC(=O)Cn2ncc3c(=O)oc4ccccc4c32)cc1 returned AID504770 0.3 and Ba CapD inh -2.12.
For CN(C(=O)c1cccc(N2C(=O)C3C4C=CC(C4)C3C2=O)c1)C1CCCCC1 (centres undefined) the results were AID504770 -0.25 and Ba CapD inh 2.19.
Screening CCCn1nnc(NC(=S)NC(=O)c2ccc(-c3cc(Cl)ccc3Cl)o2)n1 returned AID504770 0.7.
For CN1/C(=C\C(=O)c2ccccc2)c2ccccc2CC1(C)C the results were AID504770 0.5.

More records
Screening C=CCN(CC=C)C(=S)Nc1ccc2nsnc2c1 returned AID504770 1.85 and Ba CapD inh 2.04.
For O=C(O)CCC(=O)NCc1cccc(Oc2ccccc2)c1 the results were AID504770 -0.7 and Ba CapD inh -0.225.
For O=C(CSc1nnc2ccccn12)NC(=O)NC1CCCC1 the results were AID504770 -0.8.
CC(=O)Nc1ccc(S(=O)(=O)NCc2ccc(C(=O)NC3CCCC(C)C3C)cc2)cc1 (centres undefined) was read as AID504770 -0.4 and Ba CapD inh 67.5.
`CN(C)C(=O)Oc1cc(C(F)(F)F)nc(C2CC2)n1` gave AID504770 -0.05 and Ba CapD inh -0.255.
Screening COc1ccccc1C(=O)Nc1ccc(-c2csc(C)n2)cc1 returned AID504770 -1.25 and Ba CapD inh 0.35.
Screening CC(=O)N1CCN(c2nc(-c3ccccc3Cl)c3cc(Br)ccc3n2)CC1 returned Ba CapD inh 0.125.
For CCNCC1Cc2ccccc2O1 (centres undefined) the results were AID504770 -0.65 and Ba CapD inh 0.
For Cc1[nH]c2ccccc2c1C(=O)CSc1nnc(N)s1 the results were AID504770 -0.7 and Ba CapD inh -0.225.
For Cc1cc(C=C(C(N)=O)C(N)=O)c(C)cc1C=C(C(N)=O)C(N)=O the results were AID504770 0.1.
CC(C)(C)NC(=O)NCc1ccncc1 was read as AID504770 -0.7 and Ba CapD inh 0.955.
Screening C/C(=N\O)c1ccc2c(c1)CC(C)O2 (centres undefined) returned Ba CapD inh 1.
Screening O=C(Cc1c(Cl)cccc1Cl)NCCSc1n[nH]c(=O)[nH]c1=O returned AID504770 -0.7.
`N/C(=N\OC(=O)c1ccccc1F)c1ccccc1` gave AID504770 -0.45 and Ba CapD inh 0.085.

A portion of the library; the hit share may differ from the screen's.
